High-throughput results as filed in PubChem BioAssay.
LT uptake inh: anthrax lethal toxin internalization inhibition. Cells, anthrax lethal toxin internalization, FRET ratio (460/530). Potency, µM (doses to about 40 µM), inactives show top-dose activity change, negative = inhibition, most hits filed as inhibitors. actives 0.67% (n = 70,000). AID 912; active = well fitted falling ratio curve with the 530 nm signal flat; inconclusive = other ratio curves, or a change in one channel alone; inactive = flat curves in the ratio and both channels; the % refers to the ratio; further: on the % scale 0 is the no-effect control and ±100 the full control effect; nearly all actives have a fitted effect of over 50% in size; tested in ME-180 cells; beta-lactamase reporter
SmPrx2 inh: blocks S. mansoni peroxiredoxin 2 enzymatic activity. AID 448. actives 0.07% (n = 65,000). S. mansoni Prx2 activity coupled to TGR/GSH (TGR is thioredoxin glutathione reductase), NADPH fluorescence loss, qHTS; some inactives read as strong as hits. Potency, µM; active means full or partial inhibition curve with a strong effect at the top dose; inconclusive means weaker partial or single-point curve; inactive means no accepted curve; further: series up to 57 µM; many of its hits are not listed in these tables
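Purified S. mansoni TGR and Prx2 in pH 7.4 phosphate buffer with EDTA and Tween-20 were preincubated with compounds for 15 min. Further NADPH/GSH was added, then a 2.5 mM H2O2 aliquot initiated turnover, followed kinetically by NADPH fluorescence.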
Active calls of the source: *; ? = inconclusive; . = no result given; & = joins results of further samples; [ ] = dose if it differs, or a comment. Potency means the concentration at half of the fitted maximal effect. These rows are one share of the data; rates above refer to the full screens.

SMILES	LT uptake inh	SmPrx2 inh
O=C(c1cccc(N2C(=O)C3CC=CCC3C2=O)c1)N1CCCCCC1 (stereo not given)	?	>57
COc1ccc(OC)c(-c2nnc(NC(=O)C(C)Sc3nncn3C)s2)c1 (stereo not given)	-3.4%	>57
Cn1c(=O)[nH]c(=O)c2c1ncn2CCCc1ccccc1	3.8%	>57
OC(CNCCc1ccc(Cl)cc1)COCc1ccco1 (stereo not given)	-5.1%	>57
CS(=O)(=O)C1=C(O)C(=O)N(CCCC(=O)O)C1c1ccccc1F (stereo not given)	-0.9%	>57
OCCNc1ncnc2ccc(Br)cc12	9.0%	>57
CC1C(=O)CC(c2ccccc2)N(C)C1c1ccccc1 (stereo not given)	?	>57
CS(=O)(=O)Nc1ccc(S(=O)(=O)NCCc2ccccc2)cc1	6.8%	>57
O=C(NCCN1CCOCC1)C1CCC(=O)N1Cc1ccccc1Cl (stereo not given)	0.1%	>57
CCOC(=O)C1=C(N)Oc2cc(C)[nH]c(=O)c2C1c1ccncc1 (stereo not given)	-11.0%	>57
CC1CN(S(=O)(=O)c2ccccc2)CC(C)O1 (stereo not given)	-7.5%	>57
Cc1ccc(C)c(-n2c(Cc3cc(=O)[nH]c(=O)[nH]3)nnc2SCC(=O)NCc2ccco2)c1	1.1%	>57
COc1ccc(OC)c(NC(=O)c2[nH]c(C)c(C(C)=O)c2C)c1	4.1%	>57
c1cc2cn[nH]c2cc1NC1CCCCCC1	-14.4%	.
Cc1ccccc1-c1nnc(SCC(=O)Nc2ccc(Cl)cc2)n1N	-18.9%	>57
COc1ccc(-c2noc(CCC(=O)NCc3cccnc3)n2)cc1	2.5%	>57
O=C(O)c1cccn2c(=O)c3ccccc3nc12	2.6%	>57
Cc1cc(C)c(OCC(=O)Nc2cccc(NC(=O)c3ccco3)c2)c(Br)c1	-18.0%	.
CC(C)C[C@H](N)C(=O)O	2.5%[8 µM]	>57
Cc1ccccc1CSc1nnc(-c2ccco2)n1Cc1ccco1	?	>57
Nc1nc2ccccc2n1C(=O)CCc1ccccc1	-14.9%	>57
Cc1c(C(=O)N2CCOCC2)oc2ccc(S(=O)(=O)N3CCCCCC3)cc12	9.6%	>57
CCCCn1c(CN(Cc2ccccc2)Cc2ccccc2)nc2c1c(=O)n(C)c(=O)n2C	-11.3%	>57
O=C(c1csc2c1CCCCC2)N1CCC2(CC1)OCCO2	-10.3%	>57
c1ccc(CNc2nc(-c3ccc4c(c3)OCO4)nc3ccccc23)cc1	?	>57
O=c1c(-c2ccc(Cl)cc2)nc2cnc(Nc3ccccc3)nc2n1C[C@H]1CCCO1	?	>57
COc1cccc(C(=O)N2CCSC2=S)c1	?	.
COc1ccc(-c2nc3cnc(OC)nc3n(Cc3ccc(F)cc3)c2=O)cc1	?	>11.4
CC(CCc1ccccc1)NC(=O)CSc1nccc(=O)[nH]1 (stereo not given)	-7.7%	>57
COc1cccc(C2C(C(N)=O)=C(C)Nc3nc(-c4ccccc4Cl)nn32)c1 (stereo not given)	-2.3%	>57
CCn1nnnc1SCC(=O)Nc1cccc(NC(C)=O)c1	2.0%	>57
CC(C)(C)c1ccc2c(c1)OCC(C(=O)O)O2 (stereo not given)	?	>57
CS(=O)(=O)c1ccc(Cl)c(NC(=O)COC(=O)CNC(=O)c2ccc(Br)o2)c1	9.3%	>57
CCOC(=O)C1=C(C)Nc2ncnn2C1c1ccccc1F (stereo not given)	11.6%	>57
COc1ccc(NC(=O)C(CC(=O)O)Cc2ccccc2)cc1 (stereo not given)	-4.3%	.
Cc1cnn(-c2ccc3nnc(-c4ccc(Br)cc4)n3n2)c1	-13.8%	.

Part of the list above, as comma-separated lines:
Compound,LT uptake inh,SmPrx2 inh
Cc1cnn(-c2ccc3nnc(-c4ccc(Br)cc4)n3n2)c1,-13.8%,.
O=c1c(-c2ccc(Cl)cc2)nc2cnc(Nc3ccccc3)nc2n1C[C@H]1CCCO1,?,>57
CCOC(=O)C1=C(C)Nc2ncnn2C1c1ccccc1F (stereo not given),11.6%,>57
c1ccc(CNc2nc(-c3ccc4c(c3)OCO4)nc3ccccc23)cc1,?,>57
CS(=O)(=O)c1ccc(Cl)c(NC(=O)COC(=O)CNC(=O)c2ccc(Br)o2)c1,9.3%,>57

The list continues.
SMILES	LT uptake inh	SmPrx2 inh
COc1ccc(S(=O)(=O)N2CCN(c3ccccc3OC)CC2)cc1OC	-8.2%	>57
Cc1ccc(CS(=O)(=O)CCC(=O)N2CCOCC2)cc1	-1.0%	>57
COc1ccc(OC)c(C2C(C(C)=O)=C(O)C(=O)N2Cc2cccnc2)c1 (stereo not given)	-24.2%	.
CC(C)(C)Nc1nc(SCc2ccccc2)nc(N2CCOCC2)n1	?	?
COC(=O)c1[nH]c2ccc(C)cc2c1NC(=O)CN1CCN(c2ccc(F)cc2)CC1	?	>57
CCCOC(=O)c1ccc(OC(=O)c2ccco2)cc1	11.0%	>57
Cc1ccc(S(=O)(=O)Cn2nnnc2CN2CCN(C(=O)c3ccco3)CC2)cc1	-9.6%	>57
Cc1cccc(-c2c3c(=O)n(C)c(=O)n(C)c3cn2CCO)c1	7.2%	>57
COc1ccc(-c2cc3ccccc3oc2=O)cc1NC(=O)c1ccc(Br)o1	-13.3%	>57
COc1ccc(-n2c(SCC(=O)N3CCCCC3)nnc2-c2cccnc2)cc1	-15.0%	>57
COC(=O)c1ccc2c(=O)n(CCCCCC(=O)NCc3ccccn3)c(=O)[nH]c2c1	16.1%	>57
Cc1ccc(Cn2c(SCC(=O)NCc3ccco3)nc3ccsc3c2=O)cc1	?	>57
CCCCCCC(c1c(C)n(C)n(-c2ccccc2)c1=O)c1c(C)n(C)n(-c2ccccc2)c1=O	?	>57
COC(=O)CSc1nnc(CNC(=O)c2ccccc2OC)n1-c1ccc(OC)cc1	0.5%	>57
CCN(CC)CCCC(C)n1c(-c2ccccc2)nc2c(NC3CCCCC3)nc(C)nc21 (stereo not given)	-4.5%	.
CCOC(=O)Nc1ccc2c(c1)N(C(=O)N1CCN(C)CC1)c1ccccc1S2	-13.9%	>57
CCN(CCCNC(=O)C1CCCN(S(=O)(=O)c2cnc[nH]2)C1)c1ccccc1 (stereo not given)	-7.4%	>57
Cc1cc(-n2c(C)cc(C(=O)CSc3ncnc4ccccc34)c2C)no1	?	>57
CCOC(=O)N1CCN(C(=O)C(CC(C)C)NC(=O)C2CCCCC2)CC1 (stereo not given)	7.6%	>57
COc1ccc2oc(=O)c(C(=O)N3CCN(c4ccccc4F)CC3)cc2c1	-9.1%	>57
Cc1cc(=O)oc2n[nH]c(-c3ccccc3)c12	-7.8%	>57
Nc1ccc(CCNc2ncnc3c2ncn3[C@@H]2O[C@@H](CO)[C@H](O)[C@@H]2O)cc1	1.6%	>57
C/C(=C1/SC(N2CC(C)OC(C)C2)=NC1=O)c1ccccc1 (stereo not given)	0.0%	>57
COc1ccccc1-c1cc(Nc2ccc(F)cc2)ncn1	-6.1%	>57
Cn1c(=O)c2c(ncn2CC(=O)N2CCN(c3cccc(Cl)c3)CC2)n(C)c1=O	8.6%	>57
O=C(COc1ccccc1)Nc1cccc2nsnc12	?	>57
COC(=O)CN(c1ccc(C)c(Cl)c1)S(C)(=O)=O	-6.3%	.
CC(C)(C)C1CCc2onc(C(=O)Nc3ccc(F)cc3F)c2C1 (stereo not given)	-24.1%	>57
O=C(c1cnn2ccccc12)N1CCc2ccccc21	?	>57
O=C(O)c1cccc2c1C(=O)N(C1CCCCC1)C2	0.5%	>57
CN(C)c1ccc(NC(=O)CN2CCN(CC(=O)Nc3ccc(F)cc3)CC2)cc1	-13.3%	>57
CCOC(=O)CSc1nnc(C2CCCCC2)n1C	-4.9%	>57
O=C(CSc1n[nH]c(-c2cccnc2)n1)Nc1ccnc2ccccc12	6.9%	>57
CC(=O)N1CC=C2C(C#N)=C(N)C(C#N)(C#N)C(C)C2C1 (stereo not given)	-4.1%	>57
CC(C)C(=O)Nc1cccc(-c2cn3ccsc3n2)c1	-6.7%	>57
CC(C)(C)OOC(C)(C)C	-3.1%	.
CN(C)c1ccc(C(c2nnnn2C(C)(C)C)N2CCN(C(=O)c3ccco3)CC2)cc1 (stereo not given)	-8.4%	>57
O=C(O)C/C(=C\c1ccco1)C(=O)O	-10.6%[8 µM]	>57
COc1ccccc1-c1nnc(SCC(=O)Nc2ccc(Cl)cc2Cl)o1	.	>57
COC(=O)Cn1cnc2sc(C)c(S(=O)(=O)N3CCN(c4ccccc4OC)CC3)c2c1=O	-3.2%	>57
COc1ccc(CCN(Cc2cc3cccc(C)c3[nH]c2=O)C(=O)N2CCCC2)cc1OC	6.5%	>57
CCOC(=O)NCc1ccc2c(c1)cc(C)n2C	-5.3%	>57
COc1ccc(OC)c(NS(=O)(=O)c2cccs2)c1	1.8%	>57
Cc1cc(C)n(/N=C/c2cccc(O)c2)c(=O)c1C(N)=O	5.5%	.
CC(C)CNS(=O)(=O)c1ccc(C(=O)Nc2ccc3c(c2)OCCO3)cc1	-9.6%	>57
Cc1ccc(C)c(N2CCN(C(=O)COc3cc(=O)n(C)c4ccccc34)CC2)c1	?	>57
O=C(CS(=O)(=O)Cc1ccccc1)N1CCc2ccccc2C1	-3.1%	>57
CC(=O)NC1C(=O)N(CCc2ccccc2)c2ccccc21 (stereo not given)	-3.1%	>57
CCn1c(SCC#N)nc2c(c1=O)C1(CCCC1)Cc1ccccc1-2	10µM*	>57
Cc1noc(C)c1COC(=O)CCCc1nc2ccccc2s1	-8.4%	>57
CCOC(=O)c1ccc(NC(=O)C2C3C=CC(C3)C2C(=O)O)cc1 (stereo not given)	-3.7%	>57
O=C(CSc1nc2ccccc2c(=O)[nH]1)c1ccc(O)c(O)c1	19.9%	>57
c1ccc(-c2cc(N3CCCCCC3)n[nH]2)cc1	-3.5%	>57
Cc1c2c(nc3c(C)cccc13)OC(C)C2 (stereo not given)	-4.3%	>57
COc1cc(-c2nc3ccccn3c2NCC2CCCO2)ccc1O (stereo not given)	5.3%	>57
c1ccc2c(c1)nc(-c1ccncc1)n1nnnc21	-7.8%	>57
COCCOC(=O)c1c(C)oc2ccc(OCc3cc(C(=O)OC)oc3C)cc12	?	>57
CCNc1ncc2nc(-c3ccc(OC)cc3)c(=O)n(CCc3ccccc3)c2n1	?	>57
O=C(Nc1cccc2ccccc12)c1ccccc1	4.2%[8 µM]	>57
O=C(CNc1ccc(Oc2ccccc2)cc1)N1CCOCC1	2.5%	>57
Carrying on:
SMILES	LT uptake inh	SmPrx2 inh
Cn1ccc2cc(NC(=O)Nc3cccnc3)ccc21	?	>57
CC(C)(S)[C@H](N)C(=O)O	0.8%[8 µM]	>57
CCOC(=O)NC1(C(F)(F)F)NC(=O)N(C2CCCCC2)C1=O (stereo not given)	-12.1%	>57
COc1ccc(Oc2ncc3ncc(=O)n(Cc4cccs4)c3n2)cc1	-24.1%	>57
COC(=O)c1cc(C(=O)OC)cc(-n2c(C)cc(C(=O)CC#N)c2C)c1	?	>57
O=C1NC(c2cccc([N+](=O)[O-])c2)=CCN1c1ccccc1O	7.4%&-12.1%	>57&>57
O=C1CC(N2CCOCC2)C(=O)N1c1ccccc1Cl (stereo not given)	1.1%	>57
O=C1NCCN1C(=O)C12CC3CC(CC(C3)C1)C2	14.3%	>57
O=c1cc(-c2ccccc2)nc2nc(SCc3ccccc3)[nH]n12	-18.9%	>57
Cc1cc2nc(SCCN3CCCC3)[nH]c2cc1C	-6.2%	>57
COc1ccc(S(=O)(=O)NC(CC(=O)N2CCC3(CC2)OCCO3)c2ccco2)cc1 (stereo not given)	9.7%	>57
OC1CCCCC1Sc1nc2ccccc2s1 (stereo not given)	?	>57

The closing 3 entries of the section before open the next one:
SMILES	LT uptake inh	SmPrx2 inh
Cc1cc2nc(SCCN3CCCC3)[nH]c2cc1C	-6.2%	>57
COc1ccc(S(=O)(=O)NC(CC(=O)N2CCC3(CC2)OCCO3)c2ccco2)cc1 (stereo not given)	9.7%	>57
OC1CCCCC1Sc1nc2ccccc2s1 (stereo not given)	?	>57
CN(c1ccc(C(=O)Nc2cccnc2)cc1)S(C)(=O)=O	-1.3%	>57
O=C1C(=O)N(CCCn2ccnc2)C(c2cccnc2)/C1=C(/O)c1ccc(F)cc1 (stereo not given)	-3.8%	.
CC(NC(=O)c1ccccc1Cl)C1COc2ccccc2O1 (stereo not given)	.	>57
O=c1c2ccccc2nnn1CSc1nc2sc3c(c2c(=O)n1CC1CCCO1)CCC3 (stereo not given)	-6.3%	>57
CCC(C)(C)n1nnnc1C(c1cccc(C#N)c1)N1CCN(c2cccc(C)c2C)CC1 (stereo not given)	3.3%	>57
Cc1ccc(Nc2cc(C)nc3nc(C)nn23)cc1	-3.6%	>57
COc1ccccc1CNC(=O)CCn1c(=O)[nH]c2ccsc2c1=O	15.5%	>57
COc1ccc(Cc2nnc(SCC(=O)Nc3ncc(C)s3)o2)cc1	1.0%	>57
Cc1cc(C(F)(F)F)c2sc(N)nc2n1	9.3%	>57
COc1ccc(-c2ccc(-c3nnc(-c4ccncc4)o3)cc2)cc1	-11.7%	>57
O=C(Nc1cccnc1)Nc1ccc(F)c(Cl)c1	?	>57
COC(=O)C(CC(=O)c1ccc(Br)cc1)n1ccnc1 (stereo not given)	12.6µM*	>57
Cn1nnnc1SCC(=O)c1ccco1	?	>57
NS(=O)(=O)c1cc(C(=O)O)c(O)c2ccccc12	-8.7%[8 µM]	>57

Already shown: an excerpt of the list.
SMILES	LT uptake inh	SmPrx2 inh
Cn1nnnc1SCC(=O)c1ccco1	?	>57
NS(=O)(=O)c1cc(C(=O)O)c(O)c2ccccc12	-8.7%[8 µM]	>57
